NPYLR7 agonist: activates Aedes aegypti NPYLR7 receptor | HEK293T NPYLR7/Galpha15, GCaMP6s calcium fluorescence | activation, % at 10 µM | 270,000 compounds, 0.15% hits; in the data active = activation above about 40%;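 note: 0% = vehicle and 100% = reference agonist at the receptor; some compounds past the cut are filed as inactive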
NPYLR7 agonist max-min: recorded beside NPYLR7 agonist, whose call it bears; activation, %; measured here: Max-Min RFU normalised activation; some inactives read as strong as hits;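 span of the calcium signal over five minutes; 0% = vehicle and 100% = native peptide agonist; compound fluorescence can raise it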
Numbers without * were called inactive; & = joins results of further samples. Not all compounds are listed. The share of hits here may be higher or lower than overall.

#1 COc1ccc(-c2nn(-c3ccccc3C)cc2CN(C)C(C)c2ccncn2)cc1F (stereo not given)
#2 COc1ccc(NC(=O)N2CCN(C(C(=O)NCCc3ccccn3)C3CCCC3)CC2)cc1 (stereo not given)
#3 COC(=O)Cn1c(=O)n(-c2ccc(C)cc2)c(=O)c2oc3ccccc3c21
#4 CC1=NN(c2nc(C)cc(C)n2)C(=O)C1Cc1ccc(Br)cc1 (stereo not given)
#5 O=C1NC2(CCc3ccccc32)C(=O)N1Cc1cc2c(cc1Br)OCO2 (stereo not given)
#6 O=C(CN1CCC(NS(=O)(=O)c2ccccc2)CC1)NCc1ccccc1
#7 CCC(C(=O)NCc1ccc2[nH]c(C)c(C)c2c1)N1Cc2ccccc2C1=O (stereo not given)
#8 Cc1ccc(S(=O)(=O)N(C)CC(=O)N2CCC(C(N)=O)CC2)cc1
assay / entry | 1 | 2 | 3 | 4 | 5 | 6 | 7 | 8
NPYLR7 agonist | -1 | 1 | 4 | 14 | 2 | 2 | 17 | 4
NPYLR7 agonist max-min | -1 | 5 | 1 | 2 | 4 | 0 | 11 | -2

#9 O=C(c1cccc(F)c1F)N1CCCC2(CCNCC2)CC1
#10 CC(Oc1ccc(Cl)cc1Cl)C(=O)Nc1ccc(N2CCCC2=O)c(Cl)c1 (stereo not given)
#11 CCOC(=O)C1CCN(C(c2ccncc2)c2c(O)cc(C)n(Cc3ccco3)c2=O)CC1 (stereo not given)
#12 O=C(Cc1cc(F)cc(F)c1)N1CCc2c(sc3[nH]c(=O)n(C4CCCCC4)c(=O)c23)C1
#13 O=C(c1ccc(NCc2ccc(Cl)s2)cc1)N1CCOCC1
#14 Cc1ccccc1C1=NOC2CN(c3ccc(C(N)=O)cc3)CC12 (stereo not given)
#15 CCC(C)NC(=O)c1coc(CN(Cc2ccoc2)Cc2cccc(C(F)(F)F)c2)n1 (stereo not given)
#16 C=CCNC(=O)NC1CCN(c2ccccc2C(=O)NCc2ccncc2)CC1
assay / entry | 9 | 10 | 11 | 12 | 13 | 14 | 15 | 16
NPYLR7 agonist | 9 | 7 | 11 | 6 | 6 | 6 | 19 | 0
NPYLR7 agonist max-min | 7 | 0 | 7 | 2 | 0 | 4 | 18 | 15

#17 COc1cc(Nc2ncc3c(n2)CCN(C(=O)Nc2ccc(F)c(Cl)c2)C3)cc(OC)c1OC
#18 O=S(=O)(c1cccs1)N1CCN(C(c2ccccc2)c2ccc(Br)cc2)CC1 (stereo not given)
#19 CCN1CCN(c2c(CN(C(=O)Nc3ccc(C(F)(F)F)cc3)C(C)C)c(C)nn2-c2cccc(F)c2)CC1
#20 C=CCN(Cc1nc(-c2ccccc2)no1)Cc1nc(C)ccc1O
#21 CCOC(=O)c1ccc(-n2c(C)cc(/C=C3\C(=O)NC(=S)N(c4ccc(C)cc4)C3=O)c2C)cc1
#22 Cc1ccc(-n2ncc(C(=O)O)c2C2CC2)cc1Cl
#23 CCCNC(=O)c1ccc(Cl)cc1N1CCCC1=O
#24 CCOc1ccc(-c2cc(C(=O)NC(C)C)c3ccccc3n2)cc1
assay / entry | 17 | 18 | 19 | 20 | 21 | 22 | 23 | 24
NPYLR7 agonist | -6 | 0 | -16 | 12 | -12 | -10 | -1 | 1
NPYLR7 agonist max-min | -7 | 2 | -7 | 20 | -16 | -9 | -2 | 15

Some of the entries so far, with bars between the fields.
cpd | SMILES | NPYLR7 agonist | NPYLR7 agonist max-min
11 | CCOC(=O)C1CCN(C(c2ccncc2)c2c(O)cc(C)n(Cc3ccco3)c2=O)CC1 (stereo not given) | 11 | 7
12 | O=C(Cc1cc(F)cc(F)c1)N1CCc2c(sc3[nH]c(=O)n(C4CCCCC4)c(=O)c23)C1 | 6 | 2
13 | O=C(c1ccc(NCc2ccc(Cl)s2)cc1)N1CCOCC1 | 6 | 0
14 | Cc1ccccc1C1=NOC2CN(c3ccc(C(N)=O)cc3)CC12 (stereo not given) | 6 | 4
15 | CCC(C)NC(=O)c1coc(CN(Cc2ccoc2)Cc2cccc(C(F)(F)F)c2)n1 (stereo not given) | 19 | 18
16 | C=CCNC(=O)NC1CCN(c2ccccc2C(=O)NCc2ccncc2)CC1 | 0 | 15
17 | COc1cc(Nc2ncc3c(n2)CCN(C(=O)Nc2ccc(F)c(Cl)c2)C3)cc(OC)c1OC | -6 | -7
18 | O=S(=O)(c1cccs1)N1CCN(C(c2ccccc2)c2ccc(Br)cc2)CC1 (stereo not given) | 0 | 2
19 | CCN1CCN(c2c(CN(C(=O)Nc3ccc(C(F)(F)F)cc3)C(C)C)c(C)nn2-c2cccc(F)c2)CC1 | -16 | -7
20 | C=CCN(Cc1nc(-c2ccccc2)no1)Cc1nc(C)ccc1O | 12 | 20
21 | CCOC(=O)c1ccc(-n2c(C)cc(/C=C3\C(=O)NC(=S)N(c4ccc(C)cc4)C3=O)c2C)cc1 | -12 | -16
22 | Cc1ccc(-n2ncc(C(=O)O)c2C2CC2)cc1Cl | -10 | -9
23 | CCCNC(=O)c1ccc(Cl)cc1N1CCCC1=O | -1 | -2
24 | CCOc1ccc(-c2cc(C(=O)NC(C)C)c3ccccc3n2)cc1 | 1 | 15

Next structures follow.
#25 Cc1nc2ccccc2n1CC1CC1(Cl)Cl (stereo not given)
#26 Fc1ccc(-c2cn3cc(Cl)cc(Cl)c3n2)cc1
#27 Cc1cnccc1NCCn1ccnc1-c1ccc(C(=O)O)cc1
#28 CCCCCCc1ccc(C2=N/C(=C\c3ccc(N(C)C)cc3)C(=O)O2)cc1
#29 O=C(Nc1cc(C(=O)NCCc2cscn2)c2c(c1)ncn2C1CCCC1)c1ccccc1
#30 O=C(NC1CCN(c2ccccc2C(=O)NCCN2CCCC2)CC1)c1cccc(F)c1
#31 CC(C1CC1)N(C(=O)CS(=O)(=O)c1nccs1)C1CC1 (stereo not given)
#32 Cn1nc(C(=O)NCc2ccc3[nH]c4c(c3c2)CCCC4)ccc1=O
assay / entry | 25 | 26 | 27 | 28 | 29 | 30 | 31 | 32
NPYLR7 agonist | 4 | 8 | 0 | -8 | 20 | -2 | 12 | 3
NPYLR7 agonist max-min | 8 | 6 | -2 | -10 | 15 | 3 | 9 | 2

#33 COC(=O)COc1ccc(/C=C2\C(=O)NC(=S)N(c3ccc(F)cc3)C2=O)cc1OC
#34 CCCCCCCCC(=O)Nc1ccc(N2CCN(Cc3ccccc3)CC2)c(C(=O)NCCN2CCOCC2)c1
#35 O=C(c1cccs1)N(CCN1CCOCC1)c1nc2c(F)cccc2s1
#36 Cc1ccc(NC(=O)CC(C)n2cncn2)cc1 (stereo not given)
#37 COc1ccccc1NC(=O)Nc1ccc(N2CCC(Cc3ccccc3)CC2)c(C(=O)NCCN2CCOCC2)c1
#38 O=c1oc2ccccc2c2c1SC(C(F)(F)F)C2 (stereo not given)
#39 CCCCOc1ccc(C(=O)Oc2coc(CSc3ncccn3)cc2=O)cc1
#40 O=C(Nc1ccc2c(c1)OCCO2)c1csc(-c2cc3ccccc3[nH]2)n1
assay / entry | 33 | 34 | 35 | 36 | 37 | 38 | 39 | 40
NPYLR7 agonist | -6 | 8 | 16 | -2 | -8 | 16 | -7 | 0
NPYLR7 agonist max-min | -12 | 16 | 10 | -3 | 3 | 11 | 2 | -2

#41 CC(NS(=O)(=O)c1ccc(F)cc1F)C1CC2CCC1C2 (stereo not given)
#42 O=C(CN1C(=O)NC2(CCCC2)C1=O)Nc1ccc(N2CCCC2)cc1
#43 OC(CSc1nnc(N2CCCCC2)n1CC1CCCO1)c1ccccc1 (stereo not given)
#44 N#C/C(=C1/SC[C@@H](c2ccc(Cl)cc2Cl)S1)n1ccnc1
#45 CC1=C(C(=O)N2CCOc3ccccc3C2)C(c2cccnc2)NC(=O)N1 (stereo not given)
#46 COc1ccc(OC)c(C2C(C(=O)OCC3CCCO3)=C(C)NC3=C2C(=O)CCC3)c1 (stereo not given)
#47 CC(C)NC(=O)COc1ncnc2scc(-c3ccc(F)cc3)c12
#48 COCCN(Cc1ccccc1)C(=O)c1ccc(S(=O)(=O)NC2CC2)cc1
assay / entry | 41 | 42 | 43 | 44 | 45 | 46 | 47 | 48
NPYLR7 agonist | 4 | 16 | 4 | -6 | -1 | 1 | -3 | -1
NPYLR7 agonist max-min | 11 | 5 | -1 | -10 | -3 | 7 | -4 | -4

#49 CCC(C)N(Cc1ccsc1)Cc1nc(C)ccc1O (stereo not given)
#50 COc1ccccc1N1CCN(c2nc(Nc3ccc(C)c(C)c3)c3nccnc3n2)CC1
#51 CCOCC1CCN(C(=O)Nc2cc(-n3cccc3)ccc2F)C1 (stereo not given)
#52 COc1ccc(CN(Cc2ccc(F)cc2)CC2CCCO2)cn1 (stereo not given)
#53 COc1ccc(-c2nnc(SCc3ccc(Cl)cc3Cl)n2C2CCCCC2)cc1
#54 COc1ccc(-c2cc(C(=O)NCCN3CCCCC3)c(C)n2-c2ccc(C)cc2)cc1
#55 O=C(NNC(=O)C1CC1)C1CCCCC1
#56 CC1CCCN(CC(=O)Nc2oc3ccccc3c(=O)c2-c2ccccc2)C1 (stereo not given)
assay / entry | 49 | 50 | 51 | 52 | 53 | 54 | 55 | 56
NPYLR7 agonist | 0 | 3 | -21 | 1 | -3 | -3 | 16 | -4
NPYLR7 agonist max-min | -4 | 12 | -20 | 22 | -1 | 0 | 14 | -3

#57 Cc1cccc(N(CCC(N)=O)C2C=CCCC2)c1 (stereo not given)
#58 COC(=O)c1ccc(NC(=O)Cn2nc(C)c3ccccc3c2=O)cc1
#59 COc1ccccc1N1CCN(c2ccc(NC(=O)c3cc(Cl)cc(Cl)c3)cc2C(=O)NC(C)c2ccccc2)CC1 (stereo not given)
#60 O=S(=O)(Nc1cccc(S(=O)(=O)N2CCOCC2)c1)c1ccc(Cl)cc1F
#61 Cc1ccc(NC(=O)c2ccccc2)c(NC(=O)c2ccc(CN(C)C)o2)c1
#62 O=C(Nc1ccc([N+](=O)[O-])cc1)C1CCCN(c2ccc(-c3ccccc3)nn2)C1 (stereo not given)
#63 COCCNC(=O)C(NC(=O)c1cccc(C)c1)C1CCN(C(=O)c2cccs2)CC1 (stereo not given)
#64 Cc1ccccc1-n1cc(CN(C)C(=O)C(=O)c2cccn2C)cn1
assay / entry | 57 | 58 | 59 | 60 | 61 | 62 | 63 | 64
NPYLR7 agonist | 6 | -4 | 16 | -2 | -4 | -10 | 0 | -11
NPYLR7 agonist max-min | 5 | -11 | 21 | 28 | -8 | -15 | 4 | -14

#65 Cc1cccc(C2c3cccn3-c3ccccc3N2C(=O)CN(C(=O)c2ccc(C(F)(F)F)cc2)C2CC2)c1 (stereo not given)
#66 O=C(NCC(c1ccc(F)cc1)N1CCCC1)c1cn(Cc2ccccc2Cl)nn1 (stereo not given)
#67 COc1ccc(N2C(=O)CN(C(=O)CN3C(=O)c4ccccc4C3=O)CC2(C)C)cc1
#68 Cc1ccc(-n2cc(CN(C)C3CCN(C)CC3)c(-c3cccc(C)c3)n2)cc1
#69 Cn1cc(C(=O)N2CCc3ccccc3C2)c2nn(-c3ccccc3)c(=O)c-2c1
#70 CCOCC(O)CN(Cc1c(-c2ccccc2)nn(C)c1Oc1ccc(Cl)cc1)CC1CCCO1 (stereo not given)
#71 Cc1nc(SCC(=O)Nc2sc3c(c2C#N)CCC3)c2c(C)c(C)sc2n1
#72 NCC1CCC(C(=O)Oc2ccc(CCC(=O)O)cc2)CC1 (stereo not given)
assay / entry | 65 | 66 | 67 | 68 | 69 | 70 | 71 | 72
NPYLR7 agonist | 13 | 7 | 3 | 10 | 1 | -12 | 2 | -7
NPYLR7 agonist max-min | 21 | -3 | 2 | 2 | 0 | -12 | 3 | -12

#73 O=C(c1cc2cn(CCc3cccc(Cl)c3)cc2cn1)N1CCCOCC1
#74 O=C(NC(c1ccco1)C(F)(F)F)c1coc(Cn2cnc3ccccc32)n1 (stereo not given)
#75 COCCN1C(=O)c2ccccc2[C@H](C(=O)N2CCN(C(=O)Cc3ccccc3)CC2)[C@@H]1c1cccnc1
#76 CCC(=O)N1CC23C=CC(CC2CC12CCCCC2)O3 (stereo not given)
#77 Cc1ccc(-n2nc(C)c(C(=O)N3CCOCC3C)n2)c(C)c1 (stereo not given)
#78 O=C(CSC1CC(=O)N(c2ccccc2F)C1=O)Nc1ccc(Cl)cc1 (stereo not given)
#79 O=S(=O)(Nc1cccc(S(=O)(=O)N2CCCC2)c1)c1ccccc1F
#80 O=C(CCCN1CCN(c2ccccn2)CC1)c1ccc(F)cc1
assay / entry | 73 | 74 | 75 | 76 | 77 | 78 | 79 | 80
NPYLR7 agonist | 17 | 17 | -6 | 4 | 4 | -5 | -15 | 4&5
NPYLR7 agonist max-min | 10 | 2 | -13 | 5 | 1 | -9 | -21 | 12&1

#81 CCC(C)N(Cc1ccc(OC)c(OC)c1)CC(O)COCc1ccccc1 (stereo not given)
#82 COc1cccc(C(C)N(C)Cc2nc(-c3ccc(F)c(OC)c3)oc2C)c1 (stereo not given)
#83 COc1cc(Cl)c(C)cc1NC(=O)CSc1nccnc1N1CCN(c2ccccc2)CC1
#84 Cc1ccc(F)cc1S(=O)(=O)N1CCN(C(c2ccccc2)c2ccc(Br)cc2)CC1 (stereo not given)
#85 c1ccc(CNc2ncnc3nc[nH]c23)cc1
#86 CCOCCn1cc(C2CCN(C(=O)c3ccccc3OC(F)(F)F)CC2)c2ccccc21
#87 CN(Cc1cccs1)C(=O)c1cc2c(cc1O)CCCC2
#88 FC(F)(F)c1cc(-c2ccco2)nc(NCC2CCCO2)n1 (stereo not given)
#89 Cc1nc2c(c(N3CCC4(CC3)Nc3ccccc3NC4=O)n1)CNC2
#90 NC(=O)C1Cc2ccccc2CN1Cc1ncccc1C(=O)O (stereo not given)
assay / entry | 81 | 82 | 83 | 84 | 85 | 86 | 87 | 88 | 89 | 90
NPYLR7 agonist | 13 | 2 | 7 | 4 | -2 | 3 | 5 | -1 | 18 | 20
NPYLR7 agonist max-min | 19 | 2 | 5 | 2 | -4 | 5 | 3 | 1 | 4 | 16
